# KCNQ2 enhance: potentiators of rat KCNQ2 potassium channel; B-score at 10 µM; O88943; CHO-K1 KCNQ2, FluxOR thallium flux fluorescence; hits give high values; 310,000 tested, 0.54% active;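 active means fluorescence ratio B-score at least 3 SD of library B-scores, with initial fluorescence B-score within 3 SD, cut at about 5.3 in these data; same plate scores as AID 2156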;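 further: B-score of peak minus minimum over baseline fluorescence ratio after K+ and Tl+ stimulus; positive B-score means potentiation of KCNQ2 with more thallium influx and brighter signal; only the inactives scoring about 0 or higher are listed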
# Target sequence (O88943 whole entry, looked up): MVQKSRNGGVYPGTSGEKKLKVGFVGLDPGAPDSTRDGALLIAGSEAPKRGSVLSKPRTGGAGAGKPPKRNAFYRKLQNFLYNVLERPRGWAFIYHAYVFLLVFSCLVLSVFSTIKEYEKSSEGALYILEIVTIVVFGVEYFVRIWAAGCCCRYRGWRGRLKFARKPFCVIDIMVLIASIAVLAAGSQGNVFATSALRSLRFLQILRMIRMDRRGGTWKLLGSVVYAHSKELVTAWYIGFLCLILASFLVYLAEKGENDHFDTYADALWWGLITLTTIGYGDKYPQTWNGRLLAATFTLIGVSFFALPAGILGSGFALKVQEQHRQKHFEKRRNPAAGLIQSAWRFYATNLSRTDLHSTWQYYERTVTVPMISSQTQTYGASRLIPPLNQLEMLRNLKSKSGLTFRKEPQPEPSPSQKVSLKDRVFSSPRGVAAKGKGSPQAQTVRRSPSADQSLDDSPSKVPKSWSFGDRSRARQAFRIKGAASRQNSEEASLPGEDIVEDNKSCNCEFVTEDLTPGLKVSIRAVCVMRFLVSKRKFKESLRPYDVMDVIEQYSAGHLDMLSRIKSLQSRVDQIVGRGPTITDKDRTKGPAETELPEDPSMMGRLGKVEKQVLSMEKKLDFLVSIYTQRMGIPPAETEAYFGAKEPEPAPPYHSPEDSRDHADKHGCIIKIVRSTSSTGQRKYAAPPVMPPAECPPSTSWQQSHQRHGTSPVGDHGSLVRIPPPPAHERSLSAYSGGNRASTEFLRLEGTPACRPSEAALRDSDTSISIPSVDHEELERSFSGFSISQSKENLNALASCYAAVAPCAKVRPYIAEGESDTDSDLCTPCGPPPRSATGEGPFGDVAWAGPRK
# KCNQ2 enhance baseline: recorded beside KCNQ2 enhance, whose call it bears; B-score; compound at 10 µM; measured here: initial fluorescence intensity artifact check;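 brightness before thallium and not channel activity; 0 = typical well and far values either way flag optical interference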
# * marks the source's active call; other numbers are inactive results. Not all compounds are listed; rates above refer to the full screens.
KCNQ2 enhance baseline	KCNQ2 enhance	smiles
1.5	0.64	COc1ccccc1N1CCN(C(=O)c2ccc(S(=O)(=O)N3CCCC3)cc2)CC1
-0.23	1.1	COc1cc(C(=O)NCCNc2nc3c(C)c(C)ccc3cc2C#N)cc(OC)c1OC
0.05	2.5	COc1ccccc1-c1cc(C(F)(F)F)nc(S(=O)(=O)CCCC(=O)Nc2cc(C)on2)n1
-1.7	0.37	CC(Oc1ccccc1[N+](=O)[O-])C(=O)N/N=C/c1ccoc1 (configuration not stated)
0.4	0.07	COc1ccc(N2CCN(S(=O)(=O)c3ccc4c(c3)NC(=O)CC(=O)N4)CC2)cc1
0.76	0.13	Cn1cccc1P(=O)(c1cccn1C)c1cccn1C
0.64	1.1	O=C(NNC(=O)c1cc2cc(Br)ccc2oc1=O)c1ccc(O)cc1O
-0.35	0.66	COC(=O)c1ccc(CS(=O)(=O)c2ccccc2C)o1
0.64	0.3	CC(C)c1ccc(/C=C/C(=O)CCC(=O)O)cc1
0.51	1	CCOC(=O)CSc1nc(C)c2ccccc2n1
0.12	1.5	COc1ccc(Br)cc1CNC(=O)C1CCN(c2nnc(N3CCCC3=O)s2)CC1
-0.34	1.6	COc1ccc2c(c1)sc1nc(=O)ccn12
1.6	0.43	Cc1nn(-c2ccccc2)c(Cl)c1/C=N/NC(=O)c1cccc(S(=O)(=O)N2CCCC2)c1
-1.4	0.21	O=c1oc2ccccc2cc1-c1nnc(-c2cccc(Br)c2)o1
0.58	0.59	CC(C)CN(CCCNC(=O)CN1C(=O)CSc2ccc(S(=O)(=O)N3CCOCC3)cc21)CC(C)C

# A draw from above in order of formula weight, largest number first.
KCNQ2 enhance baseline	KCNQ2 enhance	smiles
0.05	2.5	COc1ccccc1-c1cc(C(F)(F)F)nc(S(=O)(=O)CCCC(=O)Nc2cc(C)on2)n1
1.6	0.43	Cc1nn(-c2ccccc2)c(Cl)c1/C=N/NC(=O)c1cccc(S(=O)(=O)N2CCCC2)c1
-0.23	1.1	COc1cc(C(=O)NCCNc2nc3c(C)c(C)ccc3cc2C#N)cc(OC)c1OC
-1.4	0.21	O=c1oc2ccccc2cc1-c1nnc(-c2cccc(Br)c2)o1
-0.35	0.66	COC(=O)c1ccc(CS(=O)(=O)c2ccccc2C)o1
0.51	1	CCOC(=O)CSc1nc(C)c2ccccc2n1
0.64	0.3	CC(C)c1ccc(/C=C/C(=O)CCC(=O)O)cc1

# Next part:
KCNQ2 enhance baseline	KCNQ2 enhance	smiles
-0.57	0.12	COc1ccccc1NC(=O)c1cc(Cl)ccc1NC(=O)c1ccco1
-1.6	0.64	C=CCN(C(=O)COc1ccccc1)c1nnc(-c2ccncc2)s1
-0.85	0.17	CCn1nnnc1SCC(=O)Nc1cccc(C)n1
0.63	0.38	CCOC(=O)c1c(NC(=O)CSc2nnc(CNC(=O)c3ccco3)n2C)sc2c1CCC2
-0.07	1.1	CCO[C@H]1OC(C(=O)N2CCN(Cc3ccc4c(c3)OCO4)CC2)=C[C@@H](C)[C@@H]1CCCO
0.8	2.6	O=C(COC(=O)c1cncc(Br)c1)Nc1nnc(-c2ccccc2)o1
-2.6	0.77	CN(c1ncc(C(F)(F)F)cc1Cl)N1C(=O)C2ONC3(C(=O)CC(C)(C)CC3=O)C2C1=O (configuration not stated)
0.5	0.93	COc1cccc(CCc2nnc(CCC(=O)NC(C)c3c(C)nn(C)c3C)o2)c1 (configuration not stated)
-1.8	2.7	Cc1nsc(Nc2ccc([N+](=O)[O-])cc2)c1C#N
1.5	0.56	COC(=O)c1[nH]c2cc(OC)ccc2c1NC(=O)CCN1CCSCC1
-0.05	0.35	COCCNc1nnnc2c1sc1nc(N3CCOCC3)c3c(c12)CC(C)(C)OC3
-0.57	1.2	Cc1cc(/C=N/NC(=O)c2cccs2)c(C)n1-c1ccccc1
1.5	0.65	CC1(C)Oc2ccc3ccc(=O)oc3c2/C(=C/O)C1=O
2.6	1.2	COc1ccccc1C(=O)Nc1ccnn1C1CCN(C2CCSCC2)CC1
-0.88	0.89	CCCc1ccc(-c2c(C)sc(N)c2C#N)cc1

# (next part)
KCNQ2 enhance baseline	KCNQ2 enhance	smiles
-1.5	0.52	O=C(NCCCN1CCOCC1)c1ccc(Sc2cccc(Cl)c2)c([N+](=O)[O-])c1
-2.1	0.97	CCOC(=O)c1nnn(CC(=O)NC(=O)Nc2ccc(F)cc2)c1C(=O)OCC
-0.04	0.12	O=C(Nc1ccccc1F)Nc1cc(S(=O)(=O)N2CCOCC2)ccc1N1CCCC1
0.68	0.91	Cc1cc(NC(=O)c2ccc(C)c(C)c2)no1
-1.4	1.3	Cn1cnnc1SCC(=O)c1ccc2c(c1)CCCC2
-0.31	0.65	O=C(Cc1cc(=O)[nH][nH]1)N/N=C/c1ccccc1Cl
-0.97	0.02	N#CC(c1cccc(Cl)c1)c1ncc(C(F)(F)F)cc1Cl (configuration not stated)
-2.4	0.28	CC(C)CNC(=O)C(=O)Nc1ccc(N(C)C)cc1
-0.09	1.5	O=C(CNS(=O)(=O)c1ccc2ccccc2c1)NCCc1ccccn1
-0.18	1.4	c1ccc(CNc2ncnc3nc[nH]c23)cc1
-1.7	1.4	CCc1ccccc1NC(=O)CN1C(=O)c2ccccc2S1(=O)=O
-1.2	0.36	COC(=O)Cc1c(C)nc2nc(NCc3ccc(Cl)cc3)[nH]n2c1=O
-2.5	0.68	CN1CCN(CC(=O)Nc2ccc(Oc3ccccc3)cc2)CC1
0.94	0.64	CCCn1c(N)c(C(=O)COC(=O)CCS(=O)(=O)c2ccc(C)cc2)c(=O)[nH]c1=O
-0.04	0.33	O=C(NCc1ccco1)c1ccc2c(=O)n(-c3ccccc3)c(=O)n(Cc3cccc(F)c3)c2c1

# Continued.
KCNQ2 enhance baseline	KCNQ2 enhance	smiles
1.9	1	COc1ccc(CNc2nc(=S)[nH]c3cc(OC)c(OC)cc23)cc1
1.1	0.11	COc1ccccc1CNC(=O)c1ccc(-c2ccccc2)cc1
-0.97	2.8	COc1ccc(CCn2nnnc2C(CC(C)C)N2CCC(C(N)=O)CC2)cc1OC (configuration not stated)
1.1	1.2	COc1cccc(N2CC(O)=C(c3ccccc3)C2=N)c1
0.99	1.1	C=C(C)C(=O)Nc1cccc(C2=NOC3(C2)C[C@@H](C(N)=O)N(C(=O)c2cc([N+](=O)[O-])cc([N+](=O)[O-])c2)C3)c1 (some centres not stated)
1.3	0.61	N=c1ccn(CC(=O)NC(N)=O)c2ccccc12
0.9	0.16	Cc1cccc(Cn2cccc2/C=C2/C(=N)N3C=CSC3=NC2=O)c1
-0.8	0.95	O=C1Cc2cc(NS(=O)(=O)c3cc(F)ccc3F)cc3c2N1CCC3
-0.09	0.32	CSc1nncc(/C(C)=N/O)n1
1.6	0.6	O=C(Nc1ccc(S(=O)(=O)Nc2nccs2)cc1)c1ccc(S(=O)(=O)N2CCOCC2)cc1
0.01	0.31	COCCN1C(=O)N(c2ccccc2)C(=O)C1CC(=O)Nc1cc(OC)cc(OC)c1 (configuration not stated)
1.2	1.6	COc1ccc(CC(=O)NCC(=O)N=Nc2c(O)[nH]c3ccccc23)cc1
-2.2	0.14	Cc1ccc2c(CN3CCCCC3CCO)cc(=O)oc2c1 (configuration not stated)
-0.08	0.17	CCC(=O)c1ccc(OCC(=O)OCC(=O)NCC2CCCCC2)cc1
-0.14	0.5	Cc1ccc(NC(=O)Cn2cnc3sc(C(=O)NCc4ccco4)c(C)c3c2=O)cc1Cl

# (continued)
KCNQ2 enhance baseline	KCNQ2 enhance	smiles
0	0.58	COCCNC(=O)C(c1ccc(F)cc1)N(C(=O)CCC(=O)Nc1ccccn1)C1CCCCC1 (configuration not stated)
-0.11	3.6	CCOC(=O)c1cnc2ccc(C)cc2c1NCCO
-1.2	0.39	CC(C)c1nc2oc3c(=O)[nH]cnc3c2c2c1CCC2
0.2	0.43	NCC1CCC(C(=O)Oc2ccc(CCC(=O)O)cc2)CC1 (configuration not stated)
-1.1	1.5	Cc1ccc([N+](=O)[O-])c(OCC(=O)OCC(=O)c2ccccc2)c1
-0.63	1.6	COc1ccc(Cl)cc1NC(=O)CCN1CCN(C)CC1
-0.92	0.4	Cc1ccc(N(CC(=O)NC2CCCC2)C(=O)CNC(=O)c2cccs2)cc1F
0.22	0.79	O=C(CN(c1ccccc1)S(=O)(=O)c1ccccc1)NCCSc1ccccn1
-0.01	1.4	CCC(=O)N1CC23C=CC(CC2CC12CCCCC2)O3 (configuration not stated)
-1.8	0.28	CCC(=O)N1N=C(c2ccc(NS(=O)(=O)CC)cc2)CC1c1ccc(C)cc1 (configuration not stated)
-0.67	1.3	CCOC(=O)C1CCN(C(=O)COc2ccc3c(c2)OCO3)CC1
1.8	1.3	O=c1cc(-c2ccccc2)[nH]n1-c1ccc([N+](=O)[O-])cc1
0.16	0.55	COc1ccc(CN=Cc2c(C(=O)O)[nH]c3ccccc23)cc1
-3.2	0.51	COc1ccc2nc(C)cc(Nc3ccc(C)cc3)c2c1
0	0.4	CCOc1ccc(S(=O)(=O)NCCC(=O)N2CC(C)OC(C)C2)cc1 (configuration not stated)

# New compounds follow:
KCNQ2 enhance baseline	KCNQ2 enhance	smiles
1.7	0.56	CCN(/N=C/C=C/c1ccccc1)c1cc(=O)n(C)c(=O)[nH]1
0.03	0.02	COc1ccc([N+](=O)[O-])c(OC)c1C(=O)NC(=O)Nc1c(C)cccc1C
0.38	0.34	Cc1ccc(C(=O)Nc2ccc3c(c2)C(=O)N(CC2CCCO2)C3=O)cc1 (configuration not stated)
-1.7	0.82	CN(C)CCCn1c2c(c(SCC(=O)Nc3ccc4c(c3)OCCO4)nc1=O)CCC2
0.16	0.06	CC(=O)N1CCC(N(CCCOC(C)C)S(=O)(=O)c2ccc([N+](=O)[O-])cc2)CC1
-0.61	0.88	CCOc1ccc2[nH]c(=O)c(CN(Cc3ccc(F)cc3)C(=O)N3CCCC3)cc2c1
-0.18	0.17	COc1ccc(C2CC(c3ccccc3)=NN2C(=O)COC(=O)c2cccnc2)cc1 (configuration not stated)
-1.2	1.5	O=C(N/N=C/c1ccc(COc2ccc(Br)cc2)o1)c1ccco1
1.3	0.01	COc1ccc(-c2cc3c(=O)n(CC(=O)NCc4ccc(Cl)cc4)ncn3n2)cc1
-1.2	0.42	O=C(CNC(=O)C1CCCCC1)Nc1cc(Cl)ccc1Cl
2.3	0.93	O=c1nc(Nc2ccccc2)sc2ccc([N+](=O)[O-])cc12
-0.68	0.22	O=C(COC(=O)c1ccc2c(c1)S(=O)(=O)N=C1CCCCCN12)NCc1cccs1
0.32	0.62	Cc1ccccc1Nc1nc(N)nc(CN2CCN(Cc3ccc4c(c3)OCO4)CC2)n1
0.12	0.12	Nc1c(S(=O)(=O)c2ccccc2)c2nc3ccccc3nc2n1C1CC1
-1.8	1.2	O=C(COc1ccccc1)NNC(=O)COc1ccc([N+](=O)[O-])cc1

# (next part)
KCNQ2 enhance baseline	KCNQ2 enhance	smiles
0	0.28	O=C(Nc1ccccc1)OCCN1CCN(Cc2ccccc2)CCC1=O
-0.02	0.09	O=C(O)/C=C/C(=O)N1CCN(c2ccccc2F)CC1
-0.85	0.64	Cc1cc(NC(=O)c2cc(C3CC3)on2)no1
-1.6	2.1	O=C(COc1ccc2ccc(=O)oc2c1)N1CCc2ccccc21
0.18	0.48	O=C(Cn1c2[n+](c3ccc(C(F)(F)F)cc31)CCCCC2)Nc1ccccc1
-0.1	0.52	CC(C)CN(C(=O)COC(=O)c1cccc2ccccc12)c1c(N)n(Cc2ccccc2)c(=O)[nH]c1=O
0.29	0.84	Cc1cc(NC(=O)CSc2nnc(-c3ccc([N+](=O)[O-])cc3)o2)no1
-1.2	0.98	Cc1ccc(-n2ncc3c(=O)n(CC(=O)N(C(C)C)C(C)C)cnc32)cc1
0.57	0.64	CCc1cc2c(=O)[nH]c(Cc3ccc(Cl)cc3)nc2s1
-0.02	1.1	CCCC1CCC(c2nc(-c3cccnc3)no2)CC1 (configuration not stated)
-0.95	2.8	Cn1c(N)c(C(=O)COC(=O)c2nc(Cl)ccc2Cl)c(=O)n(C)c1=O
-0.79	0.77	CCNC(=O)NC(=O)c1csc([N+](=O)[O-])c1
-2.4	0.16	Nc1ccccc1C(O)(Cc1ccccc1)c1ccccc1 (configuration not stated)
-1.6	0.24	CCN(c1ccccc1)S(=O)(=O)c1cccc(C(=O)N2CCN(S(=O)(=O)c3ccccc3)CC2)c1
0.46	0.04	O=c1oc2cc(OCc3ccc(F)cc3F)ccc2cc1-c1ccc2ccccc2n1

# The list continues.
KCNQ2 enhance baseline	KCNQ2 enhance	smiles
-0.11	1.1	CC1(C(=O)N2CCC(CC3CC(c4cccc(Br)c4)=NO3)(C(=O)NCC3CCCCC3)CC2)CC1 (configuration not stated)
-0.94	0.67	CCOC(=O)CCN
-1.2	0.73	O=C(COc1ccc(C(=O)Nc2ccc(Cl)cc2)cc1)NCc1ccccc1
-0.28	2.5	COc1cccc(Nc2nc(-c3cccnc3)cs2)c1
1.3	1.4	O=C(O)c1ccc(-c2nc(-c3ccccc3Cl)cs2)cc1
2.2	1.1	c1ccc2c(NC3CCCC3)nnc(NC3CCCC3)c2c1
-0.11	0.04	O=C1C(Cl)=C(Nc2cccc(O)c2)C(=O)N1Cc1ccccc1
-0.05	0.05	O=C(COc1ccc(Cl)cc1)N1CCCCCCC1
-0.61*	9.3*	O=C(Nc1cccc(N=Cc2cc(Br)cc(Br)c2O)c1)c1ccco1
-0.24	2.2	COP(=O)(OC)c1nc(-c2ccc(C)cc2)oc1N1CCCCC1
-0.13	0.67	COCCn1c(SCC(=O)Nc2ccc(S(N)(=O)=O)cc2)nc2ccccc21
-2	1.4	COc1ccc(-c2cc(C(=O)Nc3cc(S(=O)(=O)N4CCOCC4)ccc3N3CCOCC3)c3ccccc3n2)cc1
-3.5	0.02	Cc1cc(NC(=O)c2ccc(F)cc2)no1
0.54	1.5	O=C(c1cc2c(s1)CCCC2)N1CCN(S(=O)(=O)c2ccccc2)CC1
0.02	0.33	Cn1nc(-c2ccccc2)c(C(=O)Nc2ccc(Cl)cc2)c1Cl
0.61	0.49	COCCNc1ncnc2c1cnn2Cc1ccccc1Cl
